# NPYLR7 ag: mosquito NPYLR7 agonism; HEK293T NPYLR7/Galpha15, GCaMP6s calcium fluorescence; activation, % at 10 µM; 0.15% of 270,000 active; in the data active means activation above about 40%;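 further: 0% = vehicle and 100% = reference agonist at the receptor; some compounds past the cut are filed as inactive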
# NPYLR7 ag max-min: second read-out of NPYLR7 ag, no call of its own (marks repeat the call); activation, %; measured here: Max-Min RFU normalised activation; some inactives read as strong as hits;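 span of the calcium signal over five minutes; 0% = vehicle and 100% = native peptide agonist; compound fluorescence can raise it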
# Starred values were filed as active, the others as inactive; & = joins results of further samples.
SMILES,NPYLR7 ag,NPYLR7 ag max-min
C=CCN1C(c2ccc(F)cc2)=CSC1=C(C#N)c1nnc2n1CCCCC2,-1,91
COCCNC(=S)NN=C1CCCCC1,0,-3
Cc1ccc(OCC(=O)Nc2cc(C)nn2-c2ncnc3c2cnn3-c2cccc(C)c2C)cc1,2,1
O=C(NCCc1ccccc1)Nc1cc2c(cc1Br)OCCO2,-1,-2
COc1ccc2cc(C(=O)NNC(=O)c3ccccn3)c(C)nc2c1,-1,-2
O=C(NCC(c1cccs1)S(=O)(=O)c1ccccc1)Oc1ccccc1 (stereo not given),-5,-6
Cn1cc(CN2CCC(C(O)c3ccccn3)CC2)c(-c2ccc(C3CCCCC3)cc2)n1 (stereo not given),12,7
CC(C)(C)n1ncc2c(=O)n(NC(=O)C3CC3)cnc21,0,-2
CN(CCNC(=O)CCN1CCCCCCC1)S(C)(=O)=O,27,21
CNC(=O)c1cccc(Nc2c(Oc3ccc(C(C)C)cc3)cnn(-c3ccccc3)c2=O)c1,2,16
C[C@@H]1CN(C2=CC(=O)OC23CCCCC3)C[C@H](C)O1,7,3
CS(=O)(=O)c1nccn1Cc1nc(Cc2ccccc2)no1,11,8
O=C(Nc1nn[nH]n1)c1cc(-c2ccccc2Cl)nc2ccccc12,-8,-13
Cc1c(C)n2c3c(=O)n(C)c(=O)n(C)c3nc2n1CCNc1ccccc1F,9,3
CC1(C)Cc2c(sc(N=CN3CCCCCC3)c2C#N)C(C)(C)N1,20,23
CCOC(=O)C1=C(O)/C(=C\c2cc(OC)cc(OC)c2)SC1=Nc1ccccc1F,-6,-2
CCN(CC)C(=O)Oc1ccc2c(ccn2Cc2ccccc2OC)c1-c1ccc(F)c(Cl)c1,16,5
COCCNC(=O)Cn1nc2c(c1NC(=O)c1ccccc1C(F)(F)F)CSC2,-3,4
COc1ccccc1OCCCN1C(=O)C2(OCCCO2)c2ccccc21,-9,-8
CC(C)C1CN(C(=O)c2cnc[nH]c2=O)CCCN1Cc1ccc(F)cc1 (stereo not given),4,2
COc1cn(CC(=O)Nc2ccc(C)cc2C)c(CN2CCCCCC2)cc1=O,2,2
COc1ccc(F)c(CN2CCCC3(CCN(C(=O)CCSC)C3)C2)c1 (stereo not given),11,2
CCC(=O)Nc1cccc(C(=O)N[C@@H](CO)Cc2ccccc2)c1,17,3
c1cc(OCCn2ccnc2)cc(-c2ccnc3[nH]ccc23)c1,1,-2
COC1=CC(=O)OC1[C@@]1(c2ccccc2)OC[C@@H](c2ccccc2)N1S(=O)(=O)c1ccccc1 (stereo not given in full),-3,-3
COCC(=O)N1CCN(c2cc(C)ccc2OC)C(=O)C1C (stereo not given),-12,-11
C=CCn1c(SCc2cc(C(C)=O)ccc2OC)nc2ccsc2c1=O,10,15
COc1ccc(Cl)cc1-c1cc(NC(=O)c2c(C)noc2C)n[nH]1,3,-8
COc1ccccc1NC(=O)N1CCN(CCN2C(=O)CSC2c2cccc(C(F)(F)F)c2)CC1 (stereo not given),16,13
CCc1nncn1CCNC(=O)N1CCCCCC1c1ccco1 (stereo not given),1,0
Cc1cc(C(=O)N(CCCN(C)C)c2nc3ccc(Cl)cc3s2)no1,1,-1
O=C(c1ccccc1F)N(Cc1ccccc1Cl)CC1CC(c2ccc(Cl)c(Cl)c2)=NO1 (stereo not given),13,28
Fc1cccc(F)c1-c1nc(CSCCc2ccccc2)cs1,24,17
CN(C)c1ncccc1C(=O)NCc1ccc(Br)s1,5,6
Nc1ccnc(-c2ccc3ncccc3c2)c1,6,3
Cc1ccc(-c2cc(C(=O)O)n[nH]2)s1,-4,-5
CC(C)(C)OC(=O)NC1(C(=O)Nc2ncn[nH]2)Cc2ccccc2C1,6,5
COc1cc(OC)c2c(=O)c(-c3ccccc3)c(C)oc2c1OC,-12,-18
CC(NC(=O)c1cc(Cl)ccc1I)C(=O)N(C)C (stereo not given),-1,-1
CCCc1nnc(-c2cc3ccccc3n2CC(=O)Nc2ccc(C)cc2C)o1,0,0

# An excerpt of these results, with two lines to a compound.
# Every second line gives: NPYLR7 ag, NPYLR7 ag max-min
COc1cn(CC(=O)Nc2ccc(C)cc2C)c(CN2CCCCCC2)cc1=O
    2, 2
COc1ccc(F)c(CN2CCCC3(CCN(C(=O)CCSC)C3)C2)c1 (stereo not given)
    11, 2
CCC(=O)Nc1cccc(C(=O)N[C@@H](CO)Cc2ccccc2)c1
    17, 3
c1cc(OCCn2ccnc2)cc(-c2ccnc3[nH]ccc23)c1
    1, -2
COC1=CC(=O)OC1[C@@]1(c2ccccc2)OC[C@@H](c2ccccc2)N1S(=O)(=O)c1ccccc1 (stereo not given in full)
    -3, -3
COCC(=O)N1CCN(c2cc(C)ccc2OC)C(=O)C1C (stereo not given)
    -12, -11
C=CCn1c(SCc2cc(C(C)=O)ccc2OC)nc2ccsc2c1=O
    10, 15
COc1ccc(Cl)cc1-c1cc(NC(=O)c2c(C)noc2C)n[nH]1
    3, -8
COc1ccccc1NC(=O)N1CCN(CCN2C(=O)CSC2c2cccc(C(F)(F)F)c2)CC1 (stereo not given)
    16, 13
CCc1nncn1CCNC(=O)N1CCCCCC1c1ccco1 (stereo not given)
    1, 0
Cc1cc(C(=O)N(CCCN(C)C)c2nc3ccc(Cl)cc3s2)no1
    1, -1
O=C(c1ccccc1F)N(Cc1ccccc1Cl)CC1CC(c2ccc(Cl)c(Cl)c2)=NO1 (stereo not given)
    13, 28
Fc1cccc(F)c1-c1nc(CSCCc2ccccc2)cs1
    24, 17
CN(C)c1ncccc1C(=O)NCc1ccc(Br)s1
    5, 6
Nc1ccnc(-c2ccc3ncccc3c2)c1
    6, 3
Cc1ccc(-c2cc(C(=O)O)n[nH]2)s1
    -4, -5
CC(C)(C)OC(=O)NC1(C(=O)Nc2ncn[nH]2)Cc2ccccc2C1
    6, 5

# More structures follow.
SMILES,NPYLR7 ag,NPYLR7 ag max-min
N#Cc1ccc(-c2nc(-c3cccc(C(F)(F)F)c3)no2)cc1,0,-2
Cc1nnsc1CN(C)C(=O)c1nnn(Cc2ccccc2)c1C,16,14
CN(C(=O)c1cccc(CS(C)=O)c1)C1CCC(c2ccccc2)CC1 (stereo not given),-2,-3
CC(C)c1cc(=O)n2c(n1)SCC2CC(=O)NCc1ccc(Cl)cc1 (stereo not given),1,1
COc1ccc(-c2cccc(-n3cccn3)c2)cc1C(N)=O,10,6
O=C(c1cccnc1)N1CCc2c(ncnc2NCCC2=CCCCC2)C1,17,5
CCOC(=O)c1c(NC(=O)CCCl)sc2c1CCCC2,-6,-12
c1ccc(-c2[nH]c3ccccc3[nH]c3cn(-c4ccccc4)[nH]c2-3)cc1,-2,-3
CCCC(NCc1ccc(C(N)=O)cc1)c1ccccc1 (stereo not given),0,0
CCN1CCN(Cc2ccccc2CNC(=O)c2ccc(OC)cc2)CC1,4,0
O=C(c1ccco1)N1CCN(CC(=O)N2N=C(c3ccc4ccccc4c3)CC2c2ccccc2)CC1 (stereo not given),-1,-8
O=c1c2ccccc2nc2n1CCS2,2,2
O=C(NCc1cc(-c2ccc(F)cc2)no1)C1CCCCn2nnnc21 (stereo not given),-1,-3
Cn1c(C2CCCCC2)nc2ccccc21,0,-1
COCC1(NC(=O)CCc2ccccc2C)CCCC1,-3,-10
Cc1cc(C(C)(C)C)cc(C)c1CS(=O)Cc1ccc(F)cc1 (stereo not given),-1,-2
CN1CC2(CCCN(C(=O)Cc3ccc4c(c3)NC(=O)CO4)CC2)OC1=O (stereo not given),5,4
COc1ccc(-c2cc3c(=O)n(CC(=O)N4CCCc5ccccc54)ccn3n2)cc1,13,9
Cn1ccc(S(=O)(=O)N2CCC(C(=O)NC3(c4ccccc4)CCC3)CC2)c1,1,0
Fc1ccccc1CON=C1CCN(c2ncccn2)CC1,8,2
O=C(Cn1cc(C(F)(F)F)ccc1=O)NCCC1=CCCCC1,5,12
Cc1[nH]n2c(=O)cc(-c3ccc(Cl)cc3)nc2c1-c1ccc(F)cc1,-17,-23
CN(Cc1cccc(C(=O)Nc2nccn2C)c1)Cc1cc(C2CC2)n[nH]1,7,-4
COCC(=O)N1CCN(c2ccc(F)cc2)C(=O)C1C (stereo not given),-2,-1
COC(=O)c1cc(F)c(F)cc1NC(=O)Cc1cc(C)on1,1,-3
COc1cccc(C(C)NC(=O)c2sc3c(Cl)c(Cl)ccc3c2Cl)c1 (stereo not given),39,31
Cc1ccc(S(=O)(=O)N(C)Cc2ccc(C(=O)NNC(=O)C3CCC3)cc2)cc1,9,10
Cc1cccc(-c2nnn3c2nc(N2CCCCCC2)c2ccccc23)c1,-6,-11
Cl/C(=C/c1ccccc1)c1ccncc1,1,17
O=C(CSc1nc2sc3c(c2c(=O)n1Cc1ccco1)CCC3)N1CCc2ccccc2C1,3,3
CCn1ncnc1C(C)Nc1cc(OC)ncn1 (stereo not given),1,0
CCOC(=O)C1CCN(C(=O)c2cn(CC)nc2OCC)CC1,0,-2
CCCCCCCC(=O)N1CCSC1c1cccc(Cl)c1 (stereo not given),-2,11
Cc1cc(NC(=O)c2cccs2)n(-c2ncnc3c2cnn3-c2cccc(C)c2C)n1,8,4
Cc1ccc(OC(C)C(=O)N2CCN(c3cc(C#N)ccn3)CC2)c(Br)c1 (stereo not given),-6,-6
Cc1ccc(NC(=O)c2cccn(OCc3cccc([N+](=O)[O-])c3)c2=O)cc1,14,18
Cc1ccc(-n2c(SCc3ccc(F)cc3)nnc2C(Cc2ccccc2)NC(=O)Cc2cccs2)cc1 (stereo not given),6,15
CC(C)OCCS(=O)(=O)Nc1cc(-n2cccc2)ccc1F,1,5
Cc1ccc(Cl)cc1N1CCN(C(=O)c2ccc(Cl)cc2)C(C)C1=O (stereo not given),-12,-9
Cc1cccc(C(=O)N2CCCC3(C=Cc4ccccc4O3)CC2)n1 (stereo not given),-5,-11
CCc1ccc(S(=O)(=O)N2CCN(c3ccc(-c4cccs4)nn3)CC2)s1,2,15
CC(=O)Nc1ccc(NC(=O)c2ccnn2C)cc1,-2,-7
Cc1cc(N2CCC(C(N)=O)CC2)c2cc(Cl)cc(C)c2n1,3&-8,2&-10
CCOC(=O)C(C)Sc1nnc2n1CCN2c1ccccc1 (stereo not given),1,-1
CN1CC2(CCCN(C(=O)c3cccc4c3NCCC4)CC2)OC1=O (stereo not given),2,1
Cc1ccccc1-c1nc(C(N)=O)c2[nH]c(=O)n(-c3ccccc3)c2n1,11,8
COCCN(CC(=O)N(CCc1c[nH]c2ccccc12)Cc1ccc(F)cc1)C(=O)NC12CC3CC(CC(C3)C1)C2,39,37
CCC1(C(C)C)NC(=O)N(CC(=O)C(C)(C)C)C1=O (stereo not given),5,2
O=C(NC(C(=O)N/N=C\c1cc([N+](=O)[O-])ccc1Cl)c1n[nH]c(=O)c2ccccc12)c1ccccc1 (stereo not given),5,16
CCOc1ccc(CNC(=O)c2ccc(C(F)(F)F)cn2)cc1OC,6,4
C=CCSc1nnc2c(n1)OC(c1cn[nH]c1-c1ccccc1)Nc1ccccc1-2 (stereo not given),3,0
CC/C=C(/C)C(=O)N1CSCC1C(=O)NC(C)c1cccnc1 (stereo not given),2,1
COc1c(C)cnc(CN(C)S(=O)(=O)NCc2ccccc2)c1C,5,5
Cc1ccc(C)c(-c2[nH]ncc2CN(C)Cc2snnc2C)c1,25,19
CC(C)N(Cc1ccccc1OS(=O)(=O)C(C)C)C(=O)C1CCC1,-3,7
O=C(COc1cccnc1)N1CCCC(c2ccn[nH]2)C1 (stereo not given),1,0
CC(=O)Nc1ccc(NC(=O)Cn2nc(C)c([N+](=O)[O-])c2C)cc1,-3,-6
CCCc1cc(C(=O)OC(C)C(N)=O)sc1C (stereo not given),10,6
CC(=O)Nc1ccc(OCC(O)CON=C2c3ccccc3-c3ccccc32)c(C)c1 (stereo not given),6,5
CN(C)c1ccc(C2=NOC(CN(Cc3cccc(Cl)c3)C(=O)C3CCCC3)C2)cc1 (stereo not given),5,8
# (cont.)
SMILES,NPYLR7 ag,NPYLR7 ag max-min
O=C(CC(NCCCO)C(=O)O)Nc1ccc2ccccc2c1 (stereo not given),-1,-2
CCC(C)n1c(C)cn2c3c(=O)n(CC)c(=O)n(C)c3nc12 (stereo not given),2,4
CCc1ccc2nc(N(Cc3cccnc3)C(C)=O)sc2c1,-5,1
CC(=O)N1CCN(CCNS(=O)(=O)N2CCCCC2)CC1,13,5
Cc1ccc(-n2cccn2)c(CNC2COc3ccccc3C2)c1 (stereo not given),-2,-8
COc1cc(C)ccc1Oc1ccc(F)cc1N,-9,-11
CC1CC1C(=O)N(CCN1CCN(C)CC1)Cc1ccc(Br)cc1F (stereo not given),7,4
CC(Sc1ccc(Cl)cn1)C(=O)O (stereo not given),1,6
O=S(=O)(c1ccccc1NC1CCN(Cc2ccccc2)CC1)C(F)(F)F,-4,-4
COc1cc(-c2ccnc(N3CCN(S(=O)(=O)c4cc(F)c(F)cc4F)CC3)n2)cc(OC)c1OC,6,3
O=C(Cc1nc2ccccc2nc1CC(=O)c1ccccc1)c1ccccc1,1,1
NS(=O)(=O)c1ccc(NS(=O)(=O)c2ccc(F)cc2)cc1,-2,-3
CCC(=O)N(Cc1ccc(C(F)(F)F)cc1)CC1CC(c2cccnc2)=NO1 (stereo not given),8,9
O=C(c1ccc(Br)o1)N(c1ccccc1)C1C=CS(=O)(=O)C1 (stereo not given),6,5
Nc1nc(Cl)nc2c1ncn2C1O[C@H](CO)[C@@H](O)[C@@H]1F (stereo not given in full),-2,-4
O=S(=O)(NC1CC1)c1ccc(S(=O)(=O)Oc2ccc3c(c2)CCC3)cc1,15,9
COCCCN(CC(=O)N(CCc1c[nH]c2ccccc12)Cc1ccc(F)cc1)C(=O)Nc1cc(C(F)(F)F)cc(C(F)(F)F)c1,19,23
O=C(Cn1cc(Br)c(=O)[nH]c1=O)Nc1cccc(N2CCCCC2=O)c1,-2,-3
C=C1C(C)=Nc2c(OC(C)C)nc(N)nc2N1C,-2,-3

# Whole records, looked up by structure.
# COc1cc(-c2ccnc(N3CCN(S(=O)(=O)c4cc(F)c(F)cc4F)CC3)n2)cc(OC)c1OC as listed: NPYLR7 ag = 6; NPYLR7 ag max-min = 3
# O=C(c1ccc(Br)o1)N(c1ccccc1)C1C=CS(=O)(=O)C1 (stereo not given) as listed: NPYLR7 ag = 6; NPYLR7 ag max-min = 5

# Bioassay records deposited in PubChem by Fisher Drug Discovery Resource Center.

# A portion of the library, so the mix of outcomes need not match the whole.
